Source: PubChem (National Center for Advancing Translational Sciences (NCATS))
HSD17B inh: qHTS Assay for Inhibitors of HSD17B4, hydroxysteroid (17-beta) dehydrogenase 4; recombinant HSD17B10, NADH fluorescence kinetic; many of its hits are not listed in these tables; Potency, µM (highest dose often 57.1 µM), for inactives: at the highest dose activity change, negative = inhibition, usual class: inhibitors; 75,000 compounds, 7.6% hits; active means well fitted inhibition curve with a large enough effect; inconclusive means small, poorly fitted or top-dose-only effect; inactive means no such curve, though single readings can be large or run the other way;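 further: the protocol describes HADH2 (HSD17B10) and not the HSD17B4 of the title; nearly all actives have a fitted effect of over 70% in size; most hits overshoot -100% by far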
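Activity followed as NADH fluorescence increase (ex 360, em 450 nm) every 30 seconds for 4 min, using final 90 uM beta-hydroxybutyryl CoA and 1 mM NAD+. Recombinant His-tagged enzyme, 20 nM, pH 9.0 Tris buffer, 15 min compound preincubation.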
* = called active by the depositor; ? = inconclusive; [ ] = another dose, or the depositor's remark. On the % scale 0 is the no-effect control and ±100 the full control effect; potency means the concentration at half of the fitted maximal effect. Only part of the results is shown; count on the stated rates, not on these rows.

structure,HSD17B inh
C(=N\c1nc2ccccc2[nH]1)/c1cccs1,-12%
O=C(CN(c1ccc(F)cc1)S(=O)(=O)c1ccc2c(c1)OCCO2)Nc1ccc2c(c1)OCO2,14%
Cn1c(=O)c2c(nc(NCCc3ccccc3)n2Cc2ccc(F)cc2)n(C)c1=O,-3%
CC(C)(C)c1cnnn1-c1ccc(-c2csc(N)n2)cc1,-7%
CS(=O)(=O)N(CC(=O)NCc1ccncc1)Cc1ccc(Cl)cc1,-29%
CCn1c(SCC(=O)Nc2cccc(NC(=O)c3ccco3)c2)nnc1-c1cccs1,?
CCOc1ccccc1NC(=O)N1CCCC1C(=O)Nc1ccc(NC(C)=O)cc1 (centres undefined),2%
Cn1c(=O)c2[nH]c(SCCN3CCOCC3)nc2n(C)c1=S,?
O=C(O)CCCc1nc(-c2ccccc2)no1,16%
O=c1oc2ccccc2c2nccnc12,7%
CCOc1cc(C2NC(=O)NC(O)(C(F)(F)F)C2C(=O)c2ccc(OC)cc2)ccc1O (centres undefined),4%
O=C(c1cc(C(F)(F)F)cc(C(F)(F)F)c1)N1CCC[C@@]2(CCN(Cc3nccs3)C2)C1,-1%
COc1ccc(CCNS(=O)(=O)c2ccc3oc(C(=O)O)c(C)c3c2)cc1OC,8%
COc1cc(NC(=O)Cc2cccs2)ccc1-n1cnnn1,-4%
O=C1CCCN1CN(C(=O)c1ccccc1)c1ccc(F)cc1,0%

The list goes on (3 carried over from the part before).
structure,HSD17B inh
COc1ccc(CCNS(=O)(=O)c2ccc3oc(C(=O)O)c(C)c3c2)cc1OC,8%
COc1cc(NC(=O)Cc2cccs2)ccc1-n1cnnn1,-4%
O=C1CCCN1CN(C(=O)c1ccccc1)c1ccc(F)cc1,0%
O=C(Cn1ncc2c1-c1ccccc1OC2)Nc1nc2ccccc2s1,-21%
CN(C)C=Nc1nonc1N,12%
CC(C)(C)C(=O)CN1C(=O)C2(OCCO2)c2ccccc21,2%
c1ccc(-c2nnn(C34CC5CC(CC(C5)C3)C4)n2)cc1,1%
O=C(O)CNC(=O)[C@@H](CS)Cc1ccccc1,-4%[25.6 µM]
CCN(CC(=O)Nc1cccc(C(C)=O)c1)S(=O)(=O)c1ccc(OC)cc1,-14%
COc1ccc(OC(C)=O)c(C2c3cc(OC)c(OC)cc3CCN2C(C)=O)c1 (centres undefined),1%
C[C@@H](c1ccccc1)N1C(=O)[C@H]2[C@@H]3[C@H](O)C=CC(=O)[C@H]3CC[C@H]2C1=O,5%[11.4 µM]
O=C(C1CCCN(S(=O)(=O)Cc2ccccc2)C1)N1CCc2ccccc21 (centres undefined),-15%
O=c1[nH]c(=O)n([C@@H]2O[C@H](CO)[C@@H](O)[C@H]2O)cc1Br,6%
O=C(O)c1ccc(B(O)O)cc1,5%
OCC#CCSc1nnc(-c2ccncc2)o1,2%
CCCCCCSC1=C(C#N)C(c2ccc(O)cc2)CC(=O)N1 (centres undefined),?
Cc1ccc(NC(=O)c2noc3c2CCCCC3)cc1,25µM*
Cc1cc(C)nc(SCCS(=O)Cc2ccc(Cl)cc2)n1 (centres undefined),-7%
COC(C)=O,0%
Cn1c(=O)oc2cc(S(=O)(=O)N3CCC(C(=O)Nc4ccc(OC(F)(F)F)cc4)CC3)ccc21,9%
Cc1onc(-c2c(Cl)cccc2Cl)c1C(N)=O,2%
Cn1c(=O)c2c(-c3ccccc3)n(Cc3cccnc3)cc2n(C)c1=O,-3%
Cn1c(Cc2cccs2)n[nH]c1=S,2%
CCOc1ccc2nc(SC(CC)C(=O)Nc3cc(C)on3)sc2c1 (centres undefined),11%
O=C(Nc1ccccc1C(=O)N1CCOCC1)c1ccco1,0%
COc1ccc(CN(CC2CCCO2)S(=O)(=O)c2ccc(C(=O)O)cc2)cc1OC (centres undefined),-7%
NS(=O)(=O)c1ccc(N=Nc2ncccc2O)cc1,-11%[11.4 µM]
O=C(c1ccco1)N1CCN(C(=O)C(Sc2ccccc2)c2ccccc2)CC1 (centres undefined),-3%
Cc1nn(Cc2ccccc2)c(N)c1C#N,4%
Cc1cnc(C(=O)Nc2ccc(N3CCOCC3)cc2)cn1,-20%
CCc1ccc(N2CC34C=CC(O3)C(C(=O)OC)C4C2=O)cc1 (centres undefined),1%
COc1ccc(S(=O)(=O)N(C)CC(=O)Nc2ccc3c(c2)OCO3)cc1OC,?
c1ccc(Nc2cc(-c3ccoc3)ncn2)cc1,-23%
CCCCCCc1ccc(OCC(=O)O)cc1OCC(=O)O,-7%
O=C(CSc1nnc(-c2cccnc2)n1Cc1ccco1)c1ccc(Cl)cc1,3%
COc1ccc(CCNC(=O)c2nn(C)cc2Cl)cc1,0%
O=c1cnc2cnc(N3CCNCC3)nc2n1CCc1ccccc1,32µM*
O=C1N=C(N2CCCCC2)SC1=C1CCCC1,-2%
CC(C)c1ccc(S(=O)(=O)c2n[nH]n3c2nc(=O)c2ccccc23)cc1,32µM*
O=C(OCC(=O)N1CCN(C(=O)c2ccco2)CC1)c1sc2cc(F)ccc2c1Cl,-8%
CC(=O)N1CCN(c2ccc(Nc3nc(C)nc4c3oc3ccccc34)cc2)CC1,?
O=c1c2ccccc2sn1-c1ccc(S(=O)(=O)N2CCCCC2)cc1,1.3µM*
O=C(NC1CCCc2ccccc21)C1CCC(CNc2c(N3CCOCC3)c(=O)c2=O)CC1 (centres undefined),2%
CCCOC(=O)c1ccc(OCC(O)CN2CCN(C(=O)c3ccccc3)CC2)cc1 (centres undefined),11%
O=C(O)CSCc1nc2ccccc2s1,-2%
Cn1c(Cn2cnc3ccccc32)nnc1SCc1ccccc1,5%
COc1ccc([C@@H]2[C@H]3CN(C(C)=O)CC=C3C(C#N)=C(N)C2(C#N)C#N)c2ccccc12,?
O=C(c1cc2ccccc2oc1=O)N1CCN(c2ccc(N3CCOCC3)nn2)CC1,21%
COc1ccc(Oc2ncc3ncc(=O)n(C[C@H]4CCCO4)c3n2)cc1,-22%
COc1ccc(C)cc1S(=O)(=O)N(C)CC(=O)Nc1ccccc1,15%
COc1cc(C(=O)NCc2nnc(SCC(=O)NCc3ccccc3)o2)cc(OC)c1OC,4%
CC(OCc1ccccc1)C(NC(=O)OC(C)(C)C)C(=O)NCC1CCCO1 (centres undefined),4%
COC(=O)c1ccc(OCC2c3cc(OC)c(OC)cc3CCN2C(=O)c2ccco2)cc1 (centres undefined),1%
CCCOC(=O)CSc1nnc(-c2cc(OC)c(OC)c(OC)c2)o1,12%
CC(C(=O)Nc1nc2ccccc2[nH]1)N1C(=O)C2CC=CCC2C1=O (centres undefined),3%
CCOC(=O)c1[nH]c(C)c(C(=O)N2CCN(c3cccc(Cl)c3)CC2)c1C,5%
CC(Sc1nc(N(C)C)nc(N2CCOCC2)n1)C(=O)Nc1ccccc1 (centres undefined),-6%
COc1cccc(OCCn2cc(C(=O)c3ccco3)c3ccccc32)c1,?
COc1ccc(C)cc1N(C(=O)CNC(=O)c1ccco1)C(C(=O)NC1CCCC1)c1cccnc1 (centres undefined),0%
COc1ccc(NC(=O)Nc2ccc(C(=O)N3CCOCC3)cc2)cc1,-2%
O=C(O)C1CCCN(C(=O)NCc2ccccc2)C1 (centres undefined),1%
Cc1cc(C(=O)Nc2cccc(O)c2)c(C)o1,-2%
COc1ccc(CNC(=O)COc2ccc(S(=O)(=O)NC(C)C)cc2)cc1,9%

(next part)
structure,HSD17B inh
CC(C)NC(=O)NC(=O)COc1ncnc2sccc12,-6%
Fc1ccc2nc(N3CCCCC3)sc2c1,8%
Cc1ccc(S(=O)(=O)Nc2ccc(NC(=O)CN3CCCCC3)cc2)cc1,4%
N#C/C(=C(/O)COC(=O)Cc1c[nH]c2ccccc12)c1nc2ccccc2[nH]1,-13%
CC1CCCC(C)N1c1nnc(N)s1 (centres undefined),-7%
COC(=O)c1cc(C)sc1NC(=O)c1cccnc1,-2%
CCCCn1c(-c2cc(Cl)ccc2OC)n[nH]c1=S,-20%
Cc1cc(Nc2cccc(F)c2)n2nc(C)nc2n1,6%
CCOCCc1nnc(NC(=O)c2cccc(F)c2)s1,-26%
Cc1ccc(-c2cc(-c3ccc4c(c3)OCO4)c(C#N)c(N)n2)o1,25µM*
Cn1c(SCC(=O)NCc2ccc3c(c2)OCO3)nnc1C1COc2ccccc2O1 (centres undefined),-8%
O=C(Nc1cccc(NC(=O)c2ccc(-c3cccc(Br)c3)o2)c1)c1ccco1,32µM*
O=C(CSc1nc2ccccc2c(=O)n1NC(=O)Cc1ccccc1)NCc1ccco1,8%
O=C(CCCN1C(=O)c2ccccc2C1=O)Nc1ccccc1C(=O)N1CCOCC1,8%
CN(c1ccccc1C(=O)Nc1cccnc1)S(C)(=O)=O,4%
COCOc1ccc(Br)cc1C(=O)[C@H]1O[C@H]1c1cccc(OC)c1,-4%[11.4 µM]
COc1cccc(-n2c(SCC(=O)NCCC3=CCCCC3)nc3n[nH]c(C)c3c2=N)c1,5%
CCOC1CCCCC1NS(=O)(=O)c1ccc(Cl)cc1 (centres undefined),2%
CCCCN(Cc1cc2cc(OC)ccc2[nH]c1=O)C(=O)c1ccco1,25µM*
CC(=O)O[C@@H]1CC(C)=C2[C@H]1[C@H](C)CC[C@H]2/C=C(\C)C(=O)O,5%
Cc1ccc(C)c(CSc2nnc(-c3ccccn3)n2N)c1,4%
C/C=C/OC(=O)NC(c1ccccc1)[C@@]1(C(=O)OCC)CCCC1=O (some centres undefined),-8%[11.4 µM]
OC1(c2ccc(F)cc2)CCN(Cc2nnnn2Cc2cccs2)CC1,-2%
O=C1[C@H]2[C@H]3[C@H](O)[C@H](O)C/C(=N/OCc4ccccc4)[C@H]3CC[C@@H]2C(=O)N1C[C@@H]1CCCO1,0%[11.4 µM]
CC(=O)OC[C@@H]1O[C@H](CCO/N=C(\C)CCC(=O)OC[C@@H]2O[C@H](C#Cc3ccccc3)C=C[C@@H]2Oc2ccc(C)cc2)C=C[C@@H]1OC(C)=O,1%[11.4 µM]
CCC(C)[C@@H](C(=O)Nc1ccc2c(c1)OCO2)N1Cc2ccccc2C1=O (some centres undefined),-9%
CCCN(CCC)CCCNC(=O)c1ccc2c(c1)N(CC)C(=O)c1ccccc1S2=O (centres undefined),1%
COC(=O)c1ccc2c(=O)n(C3CCCCC3)c(SCC#N)nc2c1,3%
Cc1ccc(C(=O)OCC(=O)N2CC(=O)Nc3ccccc32)s1,0%
CCn1c(Cn2nnc(-c3ccccc3)n2)nnc1SCC(=O)Nc1cccc(C)c1C,0%

The list goes on, starting with the last 5 of the part before.
structure,HSD17B inh
CCC(C)[C@@H](C(=O)Nc1ccc2c(c1)OCO2)N1Cc2ccccc2C1=O (some centres undefined),-9%
CCCN(CCC)CCCNC(=O)c1ccc2c(c1)N(CC)C(=O)c1ccccc1S2=O (centres undefined),1%
COC(=O)c1ccc2c(=O)n(C3CCCCC3)c(SCC#N)nc2c1,3%
Cc1ccc(C(=O)OCC(=O)N2CC(=O)Nc3ccccc32)s1,0%
CCn1c(Cn2nnc(-c3ccccc3)n2)nnc1SCC(=O)Nc1cccc(C)c1C,0%
Cc1cc(C)c2cc(CN(Cc3cccs3)Cc3nnnn3CC3CCCO3)c(=O)[nH]c2c1 (centres undefined),-6%
CCOC(=O)C(Cc1c(F)cccc1F)(NC(C)=O)C(=O)OCC,-6%
O=C(c1ccccc1)c1ccc(Oc2ncccn2)cc1,7%
CC[C@H](c1ccccc1)c1cc(C(C)(C)C)cc(C(C)(C)C)c1O,-4%[11.4 µM]
Cc1ccc(NC(=O)CSc2nnc(CNC(=O)c3c(F)cccc3Cl)o2)cc1,-7%
Cc1ccccc1CCNC(=O)C1CCN(S(=O)(=O)c2ccc(-n3cnnn3)cc2)CC1,2%
CSc1nsc(SCC(=O)Nc2c(C)n(C)n(-c3ccccc3)c2=O)n1,1%
CCOc1ccc(NC(=O)C2CCN(S(=O)(=O)c3c(C)n[nH]c3C)CC2)cc1,-4%
O=C(c1cnccn1)N1CCC2(CC1)CN(Cc1ccccc1)C2,12%
COCCn1c(=O)c(-c2cccc(C#N)c2)nc2cnc(Oc3ccccc3)nc21,2%
CC1SC(=NC(=O)c2ccco2)NC1=O (centres undefined),?
CC(C(=O)O)c1ccc(N2Cc3ccccc3C2=O)cc1 (centres undefined),4%
CCn1c2ccccc2c2nnc(SCC(=O)Nc3cc(C)on3)nc21,9%
CCc1c(C)[nH]c2ccc(C)cc2c1=O,-7%
CCOc1ccc(C(=O)CCNC(Cc2cnc[nH]2)C(=O)O)cc1 (centres undefined),0%
CC1CN(C(=O)c2cccc(C(=O)N3CC(C)OC(C)C3)c2)CC(C)O1 (centres undefined),42%[activator]
CCCCN(CCCC)CCNC(=O)Cc1nc2c(c(=O)[nH]c(=O)n2C)n1C,17%
CC(=O)N1CC=CC1(CC(C)C)C(=O)NCc1cc(F)cc(C(F)(F)F)c1 (centres undefined),-5%
COc1cc(CCC(=O)OCC(=O)Nc2ncc(Cl)cc2Cl)cc(OC)c1OC,-16%
Cc1cc(C)nc(NS(=O)(=O)c2ccc(NC(=O)c3ccco3)cc2)n1,9%
